Assay outcomes deposited in PubChem by Broad Institute.
DUX4 inh: blocks DUX4-driven transcriptional activation. 293T-iDUX4 ZSCAN4-Gaussia luciferase reporter, 24 h; hits give low values. activity change, negative = inhibition, % (no concentration beside the values). 37,000 compounds, 0.8% hits. AID 1224904;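 active means -10% or lower and over 25 points stronger than a control reporter; inconclusive means -10% or lower with a smaller gap; inactive means above -10%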;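 further: 0% = median of neutral control wells and -100% = median of positive control wells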
DUX4 inh difference: further read-out of DUX4 inh, marked with its call; Gaussia minus Italica difference, %; measured here: selective DUX4 reporter inhibition;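 worked out from the two reporters; negative = selective loss of the DUX4 reporter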
DUX4 inh control: second read-out of DUX4 inh, no call of its own (marks repeat the call); activity change, negative = inhibition, %; measured here: Italica tet-on control reporter;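 0 = neutral control and -100 = positive control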
The depositor's hits bear a star; ? = inconclusive; · = no result given.

DUX4 inh	DUX4 inh difference	compound	DUX4 inh control
-4.9	-9.6	COC(=O)C[C@@H]1C[C@@H]2c3cc(N)ccc3O[C@@H]2[C@H](CO)O1	4.7
-1.3	-2.1	CC(=O)N(C[C@@H]1N[C@@H](CO)[C@H]1c1ccc(-c2cccnc2)cc1)C1CCCC1	0.9
7.0	11.2	CO[C@@H]1CC[C@@H]2CCOc3ccc(C#N)cc3C(=O)N(C)[C@H](C)C(=O)N(C)C[C@@H]1O2	-4.2
4.5	-2.4	CCCNC(=O)N(C)C[C@@H]1Oc2cc(-c3cccnc3)ccc2S(=O)(=O)N([C@H](C)CO)C[C@H]1C	6.9
3.5	1.4	O=C([C@@H]1[C@@H](CO)[C@@H]2Cn3c(cccc3=O)[C@@H]2N1CC1CCCCC1)N1CCOCC1	2.1
1.8	2.6	CC(C)NC(=O)N1C[C@@H]2[C@H](c3ccccc31)[C@H](CO)N2Cc1ccc(Cl)cc1	-0.8
2.2	-0.8	C[C@@H]1CN([C@@H](C)CO)S(=O)(=O)c2ccc(-c3ccccc3F)cc2O[C@H]1CN(C)Cc1cncnc1	3.0
7.8	1.5	COc1cccc(-c2ccc3n(c2=O)C[C@H]2[C@H](CO)[C@@H](C(=O)NCC4CC4)N(C(C)=O)[C@@H]32)c1	6.3
10.6	2.0	COc1ccc(-c2ccccc2[C@@H]2[C@@H](C#N)N(C(=O)C3CCOCC3)[C@H]2CO)cc1	8.6
?	·	O=C(NC1CCC1)[C@H]1[C@H](CO)[C@H]2Cn3c(ccc(-c4ccccc4)c3=O)[C@H]2N1CCc1ccccc1	·
?	·	COCC(=O)Nc1ccc2c(c1)C(=O)N(C)C[C@@H](OC)[C@H](C)CN(CCc1ccccc1)[C@H](C)CO2	·
?	·	O=C(C[C@H]1CC[C@@H]2[C@H](COC[C@H](O)CN2CCc2ccccc2)O1)N1CCC(Cc2ccccc2)CC1	·
0.8	-1.6	COc1cccc(NC(=O)C[C@@H]2CC[C@H]3[C@@H](COc4ccc(NC(=O)C5CC5)cc4C(=O)N3C)O2)c1	2.3
7.0	4.6	Cc1cccc(-c2ccc([C@H]3[C@H](CO)N4CCCCN(C(=O)NC(C)C)C[C@@H]34)cc2)c1	2.4
-0.3	-0.7	CC(C)NC(=O)N1C[C@@H]2[C@H](c3ccccc31)[C@H](CO)N2C(=O)c1cccnc1	0.4
7.9	-2.1	CCN1CC(=O)N2[C@H](CO)[C@@H](c3ccc(-c4ccccc4F)cc3)[C@H]2C1	10.0
-4.3	-0.1	COc1ccc(S(=O)(=O)Nc2ccc3c(c2)C(=O)N([C@H](C)CO)C[C@H](C)[C@H](CN(C)C(=O)NC2CCCCC2)O3)cc1	-4.2
7.0	7.2	CC(C)NC(=O)N(C)C[C@H]1OCCCC[C@@H](C)Oc2ccc(NS(C)(=O)=O)cc2C(=O)N([C@@H](C)CO)C[C@H]1C	-0.2
-2.3	0.8	COc1ccccc1NC(=O)N1C[C@@H]2[C@H](c3ccccc31)[C@H](CO)N2Cc1ccc2c(c1)OCO2	-3.1
5.4	2.7	CCC(=O)N1CC2(C1)[C@H](c1ccccc1)[C@@H](CO)N2C(=O)NC(C)C	2.7
-23.2*	-27.1*	O=C(C1CC1)N1CCCCN2[C@H](CO)[C@@H](c3ccc(-c4cccc(F)c4)cc3)[C@@H]2C1	3.9*
-5.2	-1.5	C[C@@H]1CN([C@@H](C)CO)C(=O)c2c(c3ccccc3n2C)-c2ccccc2CO[C@H]1CN(C)C	-3.6
-3.8	-3.9	CC(=O)N1[C@H](CO)[C@H](c2ccccc2)[C@H]1CN(C)S(=O)(=O)c1ccccc1	0.0
6.5	2.3	O=C(C[C@@H]1C[C@H]2c3cc(NC(=O)Nc4ccccc4)ccc3O[C@H]2[C@@H](CO)O1)NCCN1CCCCC1	4.3
1.1	2.6	C[C@H](CO)N1C[C@H](C)[C@H](CN(C)S(=O)(=O)c2ccccc2)OCCCC[C@H](C)Oc2ccc(NC(=O)Nc3ccc4c(c3)OCO4)cc2C1=O	-1.5

Record cards, as listed above:
CCC(=O)N1CC2(C1)[C@H](c1ccccc1)[C@@H](CO)N2C(=O)NC(C)C is listed as DUX4 inh = 5.4; DUX4 inh difference = 2.7; DUX4 inh control = 2.7
C[C@@H]1CN([C@@H](C)CO)S(=O)(=O)c2ccc(-c3ccccc3F)cc2O[C@H]1CN(C)Cc1cncnc1 is listed as DUX4 inh = 2.2; DUX4 inh difference = -0.8; DUX4 inh control = 3.0
COc1cccc(NC(=O)C[C@@H]2CC[C@H]3[C@@H](COc4ccc(NC(=O)C5CC5)cc4C(=O)N3C)O2)c1 is listed as DUX4 inh = 0.8; DUX4 inh difference = -1.6; DUX4 inh control = 2.3

Of the compounds above, two have a cyano group:
DUX4 inh	DUX4 inh difference	compound	DUX4 inh control
7.0	11.2	CO[C@@H]1CC[C@@H]2CCOc3ccc(C#N)cc3C(=O)N(C)[C@H](C)C(=O)N(C)C[C@@H]1O2	-4.2
10.6	2.0	COc1ccc(-c2ccccc2[C@@H]2[C@@H](C#N)N(C(=O)C3CCOCC3)[C@H]2CO)cc1	8.6

Returning to the listing, repeating the three entries before the break.
DUX4 inh	DUX4 inh difference	compound	DUX4 inh control
-3.8	-3.9	CC(=O)N1[C@H](CO)[C@H](c2ccccc2)[C@H]1CN(C)S(=O)(=O)c1ccccc1	0.0
6.5	2.3	O=C(C[C@@H]1C[C@H]2c3cc(NC(=O)Nc4ccccc4)ccc3O[C@H]2[C@@H](CO)O1)NCCN1CCCCC1	4.3
1.1	2.6	C[C@H](CO)N1C[C@H](C)[C@H](CN(C)S(=O)(=O)c2ccccc2)OCCCC[C@H](C)Oc2ccc(NC(=O)Nc3ccc4c(c3)OCO4)cc2C1=O	-1.5
-4.8	-6.0	C[C@H](CO)N1C[C@H](C)[C@H](CN(C)Cc2ccc(-c3ccccc3)cc2)OCc2ccccc2-c2c(n(C)c3ccccc23)C1=O	1.3
4.4	-1.7	Cc1ccccc1S(=O)(=O)N(C)C[C@H]1OCc2ccccc2-c2ccccc2C(=O)N([C@H](C)CO)C[C@@H]1C	6.1
-4.0	-4.0	CCN(C[C@@H]1[C@@H](c2ccccc2)[C@H](CO)N1C(=O)COC)S(C)(=O)=O	0.0
2.1	-2.3	COc1ccccc1CN1C[C@@H](C)[C@@H](OC)CN(C)C(=O)c2ccc(NC(C)=O)cc2OC[C@@H]1C	4.4
3.5	4.1	C/C=C/c1ccc([C@H]2[C@@H](CO)N(C(=O)c3cnccn3)C23CN(C(=O)CC)C3)cc1	-0.6
8.8	13.2	C[C@H](NC(=O)[C@H]1[C@H](CO)[C@H]2Cn3c(ccc(-c4ccccc4)c3=O)[C@@H]1N2C)c1ccccc1	-4.3
2.6	1.1	C[C@H]1CN([C@@H](C)CO)C(=O)c2cccc(NS(=O)(=O)c3ccccc3)c2O[C@@H]1CN(C)Cc1ccc(C(=O)O)cc1	1.5
-2.5	-2.5	C/C=C/c1ccc([C@H]2[C@@H](CO)N(C(=O)CN(C)C)[C@H]2CNC(=O)CC)cc1	0.0
?	·	COc1ccccc1C#Cc1ccc([C@@H]2[C@H](CO)N3CCCCN(CCC(F)(F)F)C[C@@H]23)cc1	·
6.2	7.0	COCC(=O)N1CC[C@H]2[C@@H]1c1cc(-c3cccc(F)c3)ccc1N(C)[C@H]2CO	-0.8
-0.5	1.3	COc1ccc(S(=O)(=O)Nc2ccc3c(c2)C(=O)N([C@H](C)CO)C[C@H](C)[C@H](CN(C)S(=O)(=O)c2cn(C)cn2)OCCCC[C@H](C)O3)cc1	-1.9
-29.3*	-29.6*	C[C@@H]1CN([C@@H](C)CO)C(=O)c2ccccc2-c2ccccc2CO[C@@H]1CN(C)Cc1ccc(-c2ccccc2)cc1	0.3*
0.5	-3.9	COc1ccc(NC(=O)N2C[C@H]3[C@@H](c4ccccc42)[C@H](CO)N3C(=O)C2CC2)cc1	4.4
5.1	2.5	COCCNC(=O)C[C@H]1CC[C@@H]2[C@H](COC[C@H](O)CN2C(=O)Nc2ccccc2OC)O1	2.6
?	·	COc1ccc2c3c(n(C)c2c1)[C@@H](CO)NCC31CN(C(=O)c2cccc(F)c2)C1	·
-8.3	-14.3	COc1cccc(NC(=O)Nc2ccc3c(c2)C(=O)N(C)C[C@@H](OC)[C@H](C)CN[C@H](C)CO3)c1	6.0
9.8	8.2	COc1ccccc1NC(=O)N1C[C@@H](O)COC[C@@H]2O[C@@H](CC(=O)NCc3ccccc3)CC[C@H]21	1.6
5.7	3.8	O=C1N[C@H](Cc2ccccc2)COCc2cnnn2CC[C@@H]1Cc1ccc(-c2ccccc2)cc1	1.9
?	·	CC(C)CC#Cc1ccc([C@H]2[C@H](CO)N3CCCCN(C(=O)Nc4ccccc4)C[C@@H]23)cc1	·
-1.2	4.2	COCC#Cc1ccc2c(c1)O[C@H](CN(C)C(=O)c1ccccc1)[C@H](C)CN([C@@H](C)CO)S2(=O)=O	-5.5
10.3	15.2	C[C@@H]1CN([C@H](C)CO)C(=O)c2ccccc2-c2ccccc2CO[C@@H]1CN(C)C(=O)Nc1ccc(F)cc1	-4.9
-9.3	-8.5	O=C(C[C@@H]1CC[C@H]2[C@@H](COC[C@@H](O)CN2Cc2ccc(Oc3ccccc3)cc2)O1)N1CCCCC1	-0.8
-1.6	-0.7	N#C[C@H]1[C@H](c2ccc(-c3ccccc3F)cc2)[C@@H](CO)N1C(=O)c1ccccn1	-0.9
2.7	7.5	C/C=C/c1ccc([C@@H]2[C@H](CO)N(C(=O)C3CCC3)C23CN(S(=O)(=O)CC)C3)cc1	-4.8
-1.5	-2.7	C[C@H]1CCCCO[C@H](CN(C)S(=O)(=O)c2ccc(Cl)cc2)[C@@H](C)CN([C@@H](C)CO)C(=O)c2cc(NC(=O)Nc3ccc(C(F)(F)F)cc3)ccc2O1	1.1
-0.7	-1.1	C[C@@H]1CN([C@@H](C)CO)S(=O)(=O)c2ccc(-c3cccc(C(=O)N(C)C)c3)cc2O[C@H]1CN(C)Cc1ccc2c(c1)OCO2	0.4
-1.7	-0.4	C[C@@H]1CCCCO[C@H](CN(C)C(=O)Nc2cccc3ccccc23)[C@@H](C)CN([C@@H](C)CO)C(=O)c2cc(NC(=O)c3ccncc3)ccc2O1	-1.3
1.1	1.3	CCC(=O)N1C[C@@H]2[C@H](c3ccccc31)[C@H](CO)N2Cc1ccc(F)cc1	-0.2
-2.4	-0.5	CNC[C@H]1Oc2ncc(C#CCC3CCCC3)cc2C(=O)N([C@H](C)CO)C[C@H]1C	-1.8
?	·	COc1ccc(NC(=O)N2CC(=O)N3[C@H](CO)[C@H](c4ccc(/C=C/c5ccccc5)cc4)[C@H]3C2)cc1	·
?	·	O=C(C[C@H]1CC[C@H]2[C@@H](COC[C@H](O)CN2Cc2cccc(Cl)c2)O1)NCc1cccc(F)c1	·
-7.2	-13.7	CO[C@@H]1CN(C)C(=O)c2ccc(NC(=O)Nc3ccc(Cl)cc3)cc2OC[C@@H](C)N(C(=O)Nc2c(C)noc2C)C[C@@H]1C	6.5
1.8	0.4	COc1ccccc1C(=O)N1C[C@@H]2[C@H](c3ccccc31)[C@H](CO)N2C(=O)C1CCOCC1	1.4
?	·	CC(C)CC#Cc1ccc([C@H]2[C@H](CO)N3C(=O)CN(C(=O)c4ccc5c(c4)OCO5)C[C@@H]23)cc1	·
-0.1	-0.8	CCCC(=O)Nc1ccc2c(c1)OC[C@@H](C)N(C(=O)Cc1ccccn1)C[C@@H](C)[C@H](OC)CN(C)C2=O	0.7
-1.5	-3.7	Cc1cccc(S(=O)(=O)N2C[C@@H]3[C@H](c4ccccc42)[C@H](CO)N3Cc2ccccn2)c1	2.2
2.4	0.0	CCCC(=O)Nc1ccc2c(c1)OC[C@H](C)N(Cc1cncnc1)C[C@@H](C)[C@H](OC)CN(C)C2=O	2.4
1.3	5.7	CN(C)CC(=O)N1[C@H](C(=O)NC2CCC2)[C@@H](CO)[C@@H]2Cn3c(ccc(-c4ccc(F)cc4)c3=O)[C@@H]21	-4.4
6.8	17.6	O=C(C[C@H]1C[C@@H]2c3cc(NC(=O)c4ccc5c(c4)OCO5)ccc3O[C@@H]2[C@H](CO)O1)NCc1cc(F)ccc1F	-10.8
?	·	COc1ccc(-c2ccc3c(c2)[C@@H]2[C@@H](CCN2C(=O)Cc2ccccc2)[C@@H](CO)N3C)cc1	·
8.1	17.8	CCc1nc(N2[C@H](C#N)[C@@H](c3ccccc3-c3ccccc3F)[C@@H]2CO)sc1C	-9.7
-6.3	-1.3	Cc1ccccc1-c1ccc([C@@H]2[C@H](CO)N3C(=O)CN(C(=O)NC4CCCC4)C[C@@H]23)cc1	-5.1
0.7	0.4	COCC#Cc1ccc([C@@H]2[C@H](C#N)N(C(=O)Cc3ccccc3)[C@H]2CO)cc1	0.3
4.2	-3.5	COCC(=O)N1CC2(C1)[C@@H](c1ccc(C3=CCCC3)cc1)[C@H](CO)N2C(=O)COC	7.7
5.7	4.1	COC(=O)C[C@@H]1CC[C@H]2[C@H](COc3ccc(NC(=O)Nc4ccc(Cl)cc4)cc3C(=O)N2C)O1	1.7
-1.5	-0.6	C[C@H]1CN([C@@H](C)CO)C(=O)c2cccc(NS(=O)(=O)c3cccs3)c2O[C@H]1CN(C)Cc1ccc2c(c1)OCO2	-0.9
-6.0	-2.6	N#Cc1ccc(-c2ccc3c(c2)[C@H]2[C@H](CCN2C(=O)c2cccnc2)[C@@H](CO)N3)cc1	-3.5
5.9	1.5	O=C(C[C@@H]1CC[C@@H]2[C@H](COC[C@H](O)CN2S(=O)(=O)c2ccccc2)O1)NCC1CCCCC1	4.4
-0.1	2.3	COc1cccc(C(=O)N2C[C@@H]3[C@H](c4ccccc42)[C@H](CO)N3C(=O)c2cccc(F)c2)c1	-2.4
0.2	3.8	C[C@H](CO)N1C[C@H](C)[C@@H](CN(C)C(=O)CCCN(C)C)OCCCC[C@H](C)Oc2ccc(NC(=O)c3ccccc3)cc2C1=O	-3.6

These rows are one share of the data (hit frequency here may not be typical).
